# StopGo reporter: FMDV 2A StopGo reporter, luciferase signal; human cells with a luciferase reporter of 2A StopGo recoding; control for the full effect not named in the record; Potency, µM (top dose mostly 57.9 µM), for the others: at the top dose signal change, negative = less light; 1.2% of 410,000 active; active = well fitted falling curve with a large enough effect; inconclusive = small, poorly fitted or top-dose-only effect; inactive = no such curve, though single readings can be large or run the other way; tested in HEK293T cells; also: % is scaled to controls: 0 for no effect and ±100 for the full control effect; nearly all actives have a fitted effect of over 45% in size; luciferase light after 4 h
# RE007 growth inh: less growth of the S. pombe RE007 Vpr strain. S. pombe RE007 Vpr strain, BacTiter-Glo ATP luminescence, 24 h; control for the full effect not named in the record. Potency, µM (titrated, usually from 92.2 µM), without a hit: at the highest dose activity change, negative = less growth. 0.21% of 360,000 active; active = well fitted falling curve with a large enough effect; inconclusive = small, poorly fitted or top-dose-only effect; inactive = no such curve, though single readings can be large or run the other way;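 also: % is scaled to controls: 0 for no effect and ±100 for the full control effect; nearly all actives have a fitted effect of over 50% in size; the assay follows cell death caused by Vpr and the record does not say whether a fall means rescue or toxicity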
#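 Fission yeast RE007 carrying one integrated HIV-1 vpr copy, seeded at OD 0.01 in PMG+AL medium with 23 nL pinned compound. Grown 24 h at 30 degrees; viability read by BacTiter-Glo luminescence after 5 min.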
# Marburg entry inh: blocks Marburg virus binding to or entry into cells. AID 540276. Marburg virus pseudotyped entry inhibition, cell reporter; control for the full effect not named in the record; about a third of the inactives were read at about 46 µM. 1.8% of 300,000 active. Potency, µM (highest dose often 37.8 µM), inactives show at the highest dose activity change, negative = inhibition, actives largely listed as inhibitors; active = well fitted inhibition curve with a large enough effect; inconclusive = small, poorly fitted or top-dose-only effect, or effect the other way; inactive = flat fitted curve, though single readings scatter; tested in HEK293 cells; about a fifth of its hits are not listed in these tables; also: % is scaled to controls: 0 for no effect and ±100 for the full control effect; luciferase read-out
# Cruzain inh noDet: inhibitors of Trypanosoma cruzi cruzain without detergent; AID 1476; Potency, µM, without a hit: max response, negative = inhibition, hits mostly inhibitors; 2.3% of 200,000 active; purified cruzain, Z-FR-AMC fluorescence, no detergent;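 also: plate controls were enzyme without inhibitor for no effect and buffer without enzyme for full effect; nearly all actives have a fitted effect of over 40% in size; top concentration of the series not given in the record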
# Target sequence (P25779 123-467 limits assumed): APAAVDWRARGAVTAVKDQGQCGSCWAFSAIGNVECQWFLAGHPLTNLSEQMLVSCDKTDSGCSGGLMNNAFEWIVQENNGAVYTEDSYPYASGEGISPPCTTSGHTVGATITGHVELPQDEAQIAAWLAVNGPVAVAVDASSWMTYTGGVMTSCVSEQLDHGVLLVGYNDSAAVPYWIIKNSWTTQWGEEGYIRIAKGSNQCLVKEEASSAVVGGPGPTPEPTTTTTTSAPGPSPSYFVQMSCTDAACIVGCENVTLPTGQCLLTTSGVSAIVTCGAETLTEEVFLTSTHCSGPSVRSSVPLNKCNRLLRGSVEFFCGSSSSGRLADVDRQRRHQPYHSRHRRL
#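 Purified cruzain at 1.5 nM, pre-incubated 15 min with compound at room temperature in 100 mM sodium acetate pH 5.5, 5 mM DTT, 0.00005% Triton X-100. Reaction started with 2 uM Z-FR-AMC; AMC fluorescence increase over 60 s gives rate.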
# NS1 function inh: influenza NS1 inhibition; S. cerevisiae slowed by influenza A NS1, growth recovery by OD600; 0.4% of 270,000 active; Potency, µM (doses to about 46.1 µM), for the others: at the highest dose activity, positive = more growth; active means well fitted rising curve with a large enough effect; inconclusive means small, poorly fitted or top-dose-only effect; inactive means no such curve, though single readings can be large or run the other way; also: nearly all actives have a fitted effect of over 50% in size
#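 In this qHTS, NS1 from influenza A is expressed in budding yeast, where it slows growth. Cells are switched from glucose to 2% galactose medium (pH 6.0, -URA), treated with compound, and growth recovery is read at OD600.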
# LASV entry inh: blocks Lassa virus binding to or entry into cells. 1.2% of 300,000 active. Potency, µM (series often up to 37.9 µM), for inactives: top-dose activity change, negative = inhibition, actives largely listed as inhibitors. Lassa virus pseudotype entry inhibition, cell reporter; control for the full effect not named in the record; active means well fitted inhibition curve with a large enough effect; inconclusive means small, poorly fitted or top-dose-only effect, or effect the other way; inactive means flat fitted curve, though single readings scatter; tested in HEK293 cells; also: % is scaled to controls: 0 for no effect and ±100 for the full control effect; nearly all actives have a fitted effect of over 50% in size; luciferase read-out
# Cruzain inh Det: blocks cruzain activity in presence of Triton detergent | purified cruzain, Z-FR-AMC fluorescence, 0.01% Triton | Potency, µM, for the others: max response, negative = inhibition, usual class: inhibitors | 0.43% of 200,000 active;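 also: plate controls were neutral wells for no effect and buffer without enzyme for full effect; nearly all actives have a fitted effect of over 40% in size; top concentration of the series not given in the record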
#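 Purified cruzain (1.5 nM final) was preincubated with compounds for 15 min at room temperature in 100 mM sodium acetate pH 5.5, 5 mM DTT, 0.01% Triton X-100. Reaction started with 2 uM Z-FR-AMC; AMC fluorescence change over 60 s gave activity.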
# SARS PLP yeast: blocks SARS-CoV papain-like protease in a yeast assay; S. cerevisiae expressing SARS-CoV PLpro, growth rescue; control for the full effect not named in the record; Potency, µM (titrated, usually from 32.9 µM), for the others: top-dose activity, positive = growth rescue; 0.19% of 330,000 active; AID 485353; active means well fitted rising curve with a large enough effect; inconclusive means small, poorly fitted or top-dose-only effect; inactive means no such curve, though single readings can be large or run the other way; also: 0% is about no effect; nearly all actives have a fitted effect of over 55% in size; growth read by luminescence after 48 h
# The depositor's hits bear a star; ? = inconclusive; . = not tested or not shown; & = joins results of further samples; [ ] = dose if it differs, or a comment. Unless noted, calls follow the shape of the dose curve; as a rule, active = well fitted curve in the direction sought with a large enough effect; inconclusive = small, poorly fitted or top-dose-only effect, or another doubt; inactive = no such curve, though single readings can be large; an effect the other way counts as inactive or inconclusive. Potency is read from the fitted curve at half-maximal effect.
[1] CCOC(=O)c1cc(-c2ccc3c(c2)OCCO3)nc2c1c(C)nn2CCC#N
[2] O=C(NC1CCCCC1)c1cc([N+](=O)[O-])ccc1N1CCCCC1
[3] Cc1ccc2c(c1)NC(=O)C(CC(=O)NCCCN1CCN(C3CCCCC3)CC1)O2 (stereo not given)
[4] O=C1CCCCC/C1=N/Nc1ccc(OCc2ccccc2)cc1
[5] NC(=O)CSc1ncnc2c1nnn2Cc1ccc(F)cc1
[6] CCOC(=O)N1CCN(C(c2cccnc2)c2ccc3cccnc3c2O)CC1 (stereo not given)
[7] CCCc1nc2oc3c(OCC)ncnc3c2c2c1COC(C)(C)C2
[8] COCCn1c(SCC(=O)Nc2nnc(C)s2)nnc1-c1ccncc1
Screen / compound no.	1	2	3	4	5	6	7	8
StopGo reporter	?	3%	.	18%	35µM*	1%	2%	-10%
RE007 growth inh	2%	4%	.	34%	0%	1%	-13%	-21%
Marburg entry inh	?	-16%	.	.	?	?	-17%	3%&5%
Cruzain inh noDet	?	-8%	1%	.	.	15%	?	-5%
NS1 function inh	-19%	-10%	-9%	-5%	.	-67%	4%	6%
LASV entry inh	?	34%[14.3 µM]	.	.	-18%	-7%	-22%	5%
Cruzain inh Det	-12%	-13%	1.5%	.	.	-4.9%	-1.3%	4.0%
SARS PLP yeast	4%	-5%	3%	-1%	2%	11µM*	3%	-1%

[9] Cc1ccc2c(NC(=S)NC(=O)c3ccccc3)cccc2n1
[10] CCOC(=O)c1ccc(NC(=O)CS(=O)(=O)Cc2nc(-c3ccc(C)cc3)oc2C)cc1
[11] CCN(c1ccc(NC(=O)c2ccc(N3CCCC3=O)cc2)cc1)C(C)C
[12] O=Cc1ccc(OC(=O)c2cccnc2)cc1
[13] CC1CCN(c2nn3c(=O)c(C(=O)NCCCOC(C)C)cnc3s2)CC1
[14] O=C(COc1ccccc1Br)NCc1ccccn1
[15] CN1CCc2c(sc3c2c(=O)n(-c2cccc(Cl)c2)c2nncn32)C1
[16] Cc1cc(Nc2nc3ccccc3c3nnc(C)n23)ccc1Br
Screen / compound no.	9	10	11	12	13	14	15	16
StopGo reporter	-9%	3%	?	-3%	-25%	46%[activator]	4%	-21%
RE007 growth inh	-2%	.	5%	8%	.	-22%	-1%	.
Marburg entry inh	-3%[46.1 µM]	?	?	18%[46.1 µM]	.	?	-16%	.
Cruzain inh noDet	.	-13%	.	.	5%	2%	.	3%
NS1 function inh	-26%	.	.	-36%	.	-7%	-2%	.
LASV entry inh	?	23%[46.1 µM]	?	17%	?	26%	19%	19%[46.1 µM]
Cruzain inh Det	.	-4.6%	.	.	2.3%	1.6%	.	-0.9%
SARS PLP yeast	-4%	.	3%	3%	.	-11%	.	.

# Exported with each value named: 2 of the compounds above
12	O=Cc1ccc(OC(=O)c2cccnc2)cc1
  StopGo reporter: -3% | RE007 growth inh: 8% | Marburg entry inh: 18%[46.1 µM] | Cruzain inh noDet: . | NS1 function inh: -36% | LASV entry inh: 17% | Cruzain inh Det: . | SARS PLP yeast: 3%
13	CC1CCN(c2nn3c(=O)c(C(=O)NCCCOC(C)C)cnc3s2)CC1
  StopGo reporter: -25% | RE007 growth inh: . | Marburg entry inh: . | Cruzain inh noDet: 5% | NS1 function inh: . | LASV entry inh: ? | Cruzain inh Det: 2.3% | SARS PLP yeast: .

# Additional entries follow.
[17] C=CCOc1c2ccc(C(=O)NC3CCCc4ccccc43)cc2nn1C (stereo not given)
[18] CC1Cc2ccccc2N1C(=O)COC(=O)Cn1nnc(-c2ccccc2)n1 (stereo not given)
[19] N#CCC(=O)NC1CCC(CC2CCC(NC(=O)CC#N)CC2)CC1 (stereo not given)
[20] Cc1ccccc1NC(=O)C1CCN(S(=O)(=O)c2cccs2)CC1
[21] Cc1cnc(NC(=O)C2CC=CCC2)s1 (stereo not given)
[22] Cc1ccc(-c2onc3ccc(C=O)cc23)cc1
[23] Cc1ccc(N(Cc2cccs2)C(=O)c2ccccc2)cc1
[24] COc1ccc(NC(=O)C2CCCN(c3nccc(C)n3)C2)cc1 (stereo not given)
Screen / compound no.	17	18	19	20	21	22	23	24
StopGo reporter	-2%	-3%	-5%	-15%	53%[activator]	1%	-16%	8%
RE007 growth inh	1%	13%	1%	-5%	19%	?	.	14%
Marburg entry inh	.	7%	26%	-10%[46.1 µM]	0%[46.1 µM]	11%	-26%[46.1 µM]	?
Cruzain inh noDet	-6%	-10%	.	.	.	-9%	-15%	.
NS1 function inh	10%	-23%	4%	.	6%	-52%	.	.
LASV entry inh	.	0%	?	.	4%	24%	-20%[46.1 µM]	-6%[46.1 µM]
Cruzain inh Det	6.8%	1.0%	.	.	.	-4.5%	-6.4%	.
SARS PLP yeast	-7%	-9%	6%	-1%	2%	-7%	.	5%

[25] Nc1ncnc2c1ncn2CCOc1ccccc1
[26] CCOc1ccc(NCCC(O)c2ccc(F)cc2)cc1 (stereo not given)
[27] COc1ccccc1-n1cc(CN2CCN(CC(C)C)C(CCO)C2)cn1 (stereo not given)
[28] CC(/C=C\C=C\c1ccccc1)=N\NC(=O)c1cncc(Br)c1
[29] Cc1ccc(CN2CCN(Cc3cn(C)nc3C)CC2CCO)o1 (stereo not given)
[30] N#C/C(=C(/O)c1ccc(Cl)cc1)c1nc2ccccc2[nH]1
[31] O=C(CSc1nc(-c2ccco2)cc(C(F)(F)F)n1)NCC1CCCO1 (stereo not given)
[32] O=C(CSc1nnnn1-c1ccc2c(c1)CCC2)NCc1cccs1
Screen / compound no.	25	26	27	28	29	30	31	32
StopGo reporter	38%[activator]	30%	31%[activator]	4%	9%	7%	.	.
RE007 growth inh	-1%	-1%	-14%	-24%	-2%	0%	-12%	1%
Marburg entry inh	27%	14%	?	?	.	27%[46.1 µM]	?	?
Cruzain inh noDet	-1%	.	.	.	.	.	1%	7%
NS1 function inh	-4%	8%	-1%	.	1%	1%	2%	-77%
LASV entry inh	22%	-2%	-1%[46.1 µM]	?	.	9%[46.1 µM]	10%	?
Cruzain inh Det	-1.0%	.	.	.	.	.	-2.1%	-1.4%
SARS PLP yeast	-3%	1%	0%	1%	0%	-1%	4%	-14%

[33] COc1ccc(CN(CCC(c2ccco2)C(C)C)C(C)=O)cc1OC (stereo not given)
[34] CCn1c(=O)cc(SCC(=O)NCc2ccc(F)cc2Cl)c2ccccc21
[35] O=C(COc1ccc(-n2cnnn2)cc1)Nc1ccccc1OC(F)F
[36] CCOC(=O)CCc1c(C)c2ccc(OCC(=O)N3CCOCC3)c(C)c2oc1=O
[37] O=C(c1ccc(F)cc1)C1CCN(C(=O)c2ccncc2)CC1
[38] Cc1ccc(-c2csc3nc(=O)c(C)nn23)cc1
[39] O=C(NC(C(=O)N/N=C/c1cccnc1)c1n[nH]c(=O)c2ccccc12)c1ccccc1 (stereo not given)
[40] COc1ccccc1C(=O)NCCN=C1NS(=O)(=O)c2ccccc21
Screen / compound no.	33	34	35	36	37	38	39	40
StopGo reporter	?	-29%	-17%	-17%	-8%	.	-7%	10%
RE007 growth inh	3%	.	-9%	2%	0%	1%	6%	-9%
Marburg entry inh	.	-15%[46.1 µM]	15%	-9%	3%	-9%	9%	0%[46.1 µM]
Cruzain inh noDet	.	-4%	.	.	3%	2%	.	.
NS1 function inh	5%	.	.	0%	4%	-4%	-6%	5%
LASV entry inh	.	-6%[46.1 µM]	-6%	6%	9%	?	2%	?
Cruzain inh Det	.	3.5%	.	.	2.2%	0.9%	.	.
SARS PLP yeast	2%	.	-3%	1%	17%	0%	1%	1%

[41] CCCCC(=O)OC1=C(C(C)=O)N(Cc2ccccc2)S(=O)(=O)c2ccccc21
[42] Cc1ccc(OCCSc2nc3ccc(NC(=O)c4ccc(F)cc4)cc3s2)cc1
[43] O=C(Nc1cccc(Cl)c1)N1CCN(C2c3ccccc3-c3ccccc32)CC1
[44] COc1ccccc1C(=O)Nc1c(C(=O)Nc2cc(Cl)ccc2C)sc2nc(C)cc(C)c12
[45] c1ccc(-c2nc(-c3ccccn3)no2)cc1
[46] Cc1ccc(S(=O)(=O)N2CCN(C(=O)c3cc4c(s3)CCC(C)C4)CC2)cc1 (stereo not given)
[47] Cc1cccc(-n2c(SCc3ccc(C#N)cc3)nnc2-c2c[nH]c3ccccc23)c1
[48] Nc1c(C(=O)NCc2ccccc2)nnn1Cc1ccc(F)cc1
[49] Cc1cccc(CN2C(=O)c3ccccc3S(=O)(=O)c3ccc(C(=O)NCCCN4CCCC4)cc32)c1
[50] CCN(CC(=O)Nc1c(F)cccc1F)C(=O)CNC(=O)c1cccc(C)c1
[51] Cc1nn2c(=O)cc(COC(=O)c3cccc(NC(=O)COc4ccccc4Cl)c3)nc2s1
Screen / compound no.	41	42	43	44	45	46	47	48	49	50	51
StopGo reporter	-1%	?	0%	0%	13µM*	0%	-10%	0%	2%	14%	7%
RE007 growth inh	.	.	-1%	.	?	-16%	3%	-8%	-1%	1%	.
Marburg entry inh	-2%[46.1 µM]	7%[46.1 µM]	0%[46.1 µM]	?	?	12%	?	.	.	8%[46.1 µM]	.
Cruzain inh noDet	-9%	0%	.	0%	-19%	.	?	?	.	.	?
NS1 function inh	.	.	2%	.	-6%	.	14%	?	2%	6%	.
LASV entry inh	-8%[46.1 µM]	?	21%[46.1 µM]	0%[46.1 µM]	?	6%	?	.	.	?	?
Cruzain inh Det	-7.1%	2.8%	.	0.1%	-1.9%	.	-2.6%	4.0%	.	.	-1.2%
SARS PLP yeast	.	.	-1%	.	-58%	-2%	12%	2%	-4%	0%	.

# 2 entries from above, field by field:
50: CCN(CC(=O)Nc1c(F)cccc1F)C(=O)CNC(=O)c1cccc(C)c1
- StopGo reporter: 14%
- RE007 growth inh: 1%
- Marburg entry inh: 8%[46.1 µM]
- Cruzain inh noDet: .
- NS1 function inh: 6%
- LASV entry inh: ?
- Cruzain inh Det: .
- SARS PLP yeast: 0%
51: Cc1nn2c(=O)cc(COC(=O)c3cccc(NC(=O)COc4ccccc4Cl)c3)nc2s1
- StopGo reporter: 7%
- RE007 growth inh: .
- Marburg entry inh: .
- Cruzain inh noDet: ?
- NS1 function inh: .
- LASV entry inh: ?
- Cruzain inh Det: -1.2%
- SARS PLP yeast: .

# Screening data from PubChem.
